NS1 function inh: blocks influenza NS1 protein function; AID 2326; Potency, µM (top dose mostly 46.1 µM), for the others: top-dose activity, positive = more growth; S. cerevisiae slowed by influenza A NS1, growth recovery by OD600; 270,000 tested, 0.4% active; active means well fitted rising curve with a large enough effect; inconclusive means small, poorly fitted or top-dose-only effect; inactive means no such curve, though single readings can be large or run the other way; further: nearly all actives have a fitted effect of over 50% in size
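Read-out: OD600 growth recovery of NS1-expressing budding yeast. Cells grown overnight at 30C in -URA glucose medium, washed, resuspended and diluted 1:100 in 2% galactose assay medium, pH 6.0. Same strain lacking NS1 served as positive control.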
Cruzain inh noDet: blocks cruzain activity in detergent-free assay. 200,000 tested, 2.3% active. AID 1476. P25779. Potency, µM, for inactives: max response, negative = inhibition, actives largely listed as inhibitors. purified cruzain, Z-FR-AMC fluorescence, no detergent;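 further: plate controls were enzyme without inhibitor for no effect and buffer without enzyme for full effect; nearly all actives have a fitted effect of over 40% in size; top concentration of the series not given in the record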
Target sequence (P25779 123-467 limits assumed): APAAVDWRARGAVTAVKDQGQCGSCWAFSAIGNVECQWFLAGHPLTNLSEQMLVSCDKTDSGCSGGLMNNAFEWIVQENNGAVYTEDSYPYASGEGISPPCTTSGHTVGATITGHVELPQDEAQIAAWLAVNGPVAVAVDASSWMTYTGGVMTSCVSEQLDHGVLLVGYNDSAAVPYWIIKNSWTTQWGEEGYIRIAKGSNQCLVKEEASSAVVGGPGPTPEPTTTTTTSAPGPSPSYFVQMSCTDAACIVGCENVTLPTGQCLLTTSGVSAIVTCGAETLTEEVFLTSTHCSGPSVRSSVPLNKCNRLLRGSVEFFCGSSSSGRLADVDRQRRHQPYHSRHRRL
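Purified cruzain at 1.5 nM, pre-incubated 15 min with compound at room temperature in 100 mM sodium acetate pH 5.5, 5 mM DTT, 0.00005% Triton X-100. Reaction started with 2 uM Z-FR-AMC; AMC fluorescence increase over 60 s gives rate.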
SARS PLpro yeast: SARS-CoV PLP inhibition in yeast. Potency, µM (titrated, usually from 32.9 µM), without a hit: at the top dose activity, positive = growth rescue. S. cerevisiae expressing SARS-CoV PLpro, growth rescue; control for the full effect not named in the record. 330,000 tested, 0.19% active; active means well fitted rising curve with a large enough effect; inconclusive means small, poorly fitted or top-dose-only effect; inactive means no such curve, though single readings can be large or run the other way; further: 0% is about no effect; nearly all actives have a fitted effect of over 55% in size; growth read by luminescence after 48 h
MARV entry inh: blocks Marburg virus binding to or entry into cells. Marburg virus pseudotyped entry inhibition, cell reporter; control for the full effect not named in the record; about a third of the inactives were read at about 46 µM. 300,000 tested, 1.8% active. Potency, µM (series often up to 37.8 µM), inactives show at the highest dose activity change, negative = inhibition, most hits filed as inhibitors; active = well fitted inhibition curve with a large enough effect; inconclusive = small, poorly fitted or top-dose-only effect, or effect the other way; inactive = flat fitted curve, though single readings scatter; tested in HEK293 cells; about a fifth of its hits are not listed in these tables; further: on the % scale 0 is the no-effect control and ±100 the full control effect; luciferase read-out
2A StopGo: FMDV 2A StopGo reporter, luciferase signal. human cells with a luciferase reporter of 2A StopGo recoding; control for the full effect not named in the record. Potency, µM (doses to about 57.9 µM), inactives show at the highest dose signal change, negative = less light. 410,000 tested, 1.2% active. AID 1159524; active = well fitted falling curve with a large enough effect; inconclusive = small, poorly fitted or top-dose-only effect; inactive = no such curve, though single readings can be large or run the other way; tested in HEK293T cells; further: on the % scale 0 is the no-effect control and ±100 the full control effect; nearly all actives have a fitted effect of over 45% in size; luciferase light after 4 h
LASV entry inh: inhibitors of Lassa virus binding or cell entry; Lassa virus pseudotype entry inhibition, cell reporter; control for the full effect not named in the record; Potency, µM (top dose mostly 37.9 µM), for inactives: top-dose activity change, negative = inhibition, hits mostly inhibitors; 300,000 tested, 1.2% active; AID 540256; active means well fitted inhibition curve with a large enough effect; inconclusive means small, poorly fitted or top-dose-only effect, or effect the other way; inactive means flat fitted curve, though single readings scatter; tested in HEK293 cells; further: on the % scale 0 is the no-effect control and ±100 the full control effect; nearly all actives have a fitted effect of over 50% in size; luciferase read-out
Cruzain inh Det: blocks cruzain activity in presence of Triton detergent; P25779; purified cruzain, Z-FR-AMC fluorescence, 0.01% Triton; Potency, µM, for inactives: max response, negative = inhibition, hits mostly inhibitors; 200,000 tested, 0.43% active; AID 1478;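 further: plate controls were neutral wells for no effect and buffer without enzyme for full effect; nearly all actives have a fitted effect of over 40% in size; top concentration of the series not given in the record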
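Steps: dispense cruzain (1.5 nM final) in acetate buffer pH 5.5 with DTT and 0.01% Triton X-100; pin-transfer compounds; incubate 15 min RT; add Z-FR-AMC (2 uM final); read fluorescence every 30 s, using the 60 s intensity change.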
RE007 growth inh: less growth of the S. pombe RE007 Vpr strain. S. pombe RE007 Vpr strain, BacTiter-Glo ATP luminescence, 24 h; control for the full effect not named in the record. Potency, µM (top dose mostly 92.2 µM), for the others: at the highest dose activity change, negative = less growth. 360,000 tested, 0.21% active. AID 651644; active = well fitted falling curve with a large enough effect; inconclusive = small, poorly fitted or top-dose-only effect; inactive = no such curve, though single readings can be large or run the other way;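 further: on the % scale 0 is the no-effect control and ±100 the full control effect; nearly all actives have a fitted effect of over 50% in size; the assay follows cell death caused by Vpr and the record does not say whether a fall means rescue or toxicity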
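Fission yeast strain RE007, carrying one chromosomally integrated HIV-1 vpr copy, was seeded at OD 0.01 in PMG+AL medium with 23 nL pinned compound. After 24 h at 30 °C and 99% humidity, viability was read by BacTiter-Glo luminescence.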
Numbers without * were called inactive; ? = inconclusive; . = no result given; [ ] = another dose, or the depositor's remark. Unless noted, the call rests on the fitted dose curve; in most records, active means well fitted curve in the direction sought with a large enough effect; inconclusive means small, poorly fitted or top-dose-only effect, or another doubt; inactive means no such curve, though single readings can be large; an effect the other way counts as inactive or inconclusive. Potency means the concentration at half of the fitted maximal effect.

SMILES	NS1 function inh	Cruzain inh noDet	SARS PLpro yeast	MARV entry inh	2A StopGo	LASV entry inh	Cruzain inh Det	RE007 growth inh
COc1ccc(N2CCN(C(=O)CN(Cc3ccccc3)S(C)(=O)=O)CC2)cc1	5%	12%	7%	-1%	.	?	0.3%	-22%
CCC1=C(OC(=O)N(CC)CC)N2C(=O)OC(=NCC(=O)OC)[C@]2(C)[C@H]2C1=CC[C@H]1C(=O)NC(=O)[C@H]12	-3%	6%	1%	.	-7%	.	-2.1%	-12%
Cc1cc(NC(=O)CCC(=O)N(c2ccccc2)C(C(=O)NC2CCCC2)c2ccccc2)no1 (stereo not given)	0%	19%	3%	0%	-3%	-11%	0.6%	10%
CCN(Cc1ccccc1)S(=O)(=O)c1ccc(F)c(C(=O)Nc2cc(C(F)(F)F)ccc2Cl)c1	.	?	.	.	-20%	-2%[46.1 µM]	0.8%	.
COc1cccc(NC(=O)CCCn2c(=S)[nH]c3ccccc3c2=O)c1	11%	-17%	4%	-21%	-1%	13%	-1.2%	-3%[3.69 µM]
CCc1ccc(C2NC(C(=O)O)CS2)cc1 (stereo not given)	-1%	-6%	8%	0%	.	.	-1.5%	.
Cc1ccc(Oc2ncccc2NC(=O)CCCC(=O)O)c2c1CCC2	-8%	.	-3%	0%[46.1 µM]	-2%	?	.	6%
O=C(NC1CC2CCC(C1)N2C(=O)NCc1ccccc1)NC12CC3CC(CC(C3)C1)C2 (stereo not given)	2%	-5%	-1%	7%	-27%	13%	2.4%	-3%
COc1cccc(COc2ccccc2C2Nc3ccc(Br)cc3C(=O)N2NC(=O)c2ccncc2)c1 (stereo not given)	6%	?	-4%	-26%	48%[activator]	?	1.2%	0%
CCCOC(=O)C(C)n1cnc2sc(C)c(C)c2c1=O (stereo not given)	-10%	-2%	11%	5%	-2%	.	6.4%	.
COc1cccc(CN(C(=O)c2ccccc2Cl)C2CCS(=O)(=O)C2)c1 (stereo not given)	3%	.	-1%	5%[46.1 µM]	19%	-18%[46.1 µM]	.	-5%
c1ccc2c(c1)CCCN2c1nc2ccccc2n2cnnc12	-54%	-4%	2%	.	-5%	.	-4.6%	16%
CC(=O)NC1=NN(C(C)=O)C(c2ccc(F)cc2)S1 (stereo not given)	5%	.	0%	-3%[46.1 µM]	-11%	-17%[46.1 µM]	.	-8%
Cc1cccc(Nc2nc(-c3sc(C)nc3C)cs2)c1	8%	.	-20%	?	?	?	.	19%
O=C(NC1CCCCC1)C(c1ccco1)N(C(=O)c1csnn1)C1CCCC1 (stereo not given)	-5%	2%	2%	-2%	-8%	19%	2.6%	17%
CC(=O)c1cnc2c(C(=O)O)cnn2c1C	20%	-10%	5%	0%	.	19%	5.1%	12%
COc1ccc(-n2c(SCC(N)=O)nnc2-c2ccco2)cc1	4%	.	3%	.	9%	.	.	8%
Cc1ccc(S(=O)(=O)N(C)C)cc1NC(=O)CSc1nnnn1-c1ccc(O)cc1	-1%	.	0%	13%[46.1 µM]	?	-28%	.	17%
CCOC(=O)c1ccc(NC(=O)NCCc2cnc[nH]2)cc1	4%	.	12%	24%[46.1 µM]	18%	16%[46.1 µM]	.	-19%
Cc1nn(CC(=O)N2CCN(c3ccccc3)CC2)c(=O)c2cc3cc(F)ccc3n12	.	12%	.	5%[46.1 µM]	-13%	.	-1.8%	.
C=CCOc1cccc(C2/C(=C(\O)c3ccc4c(c3)OCCO4)C(=O)C(=O)N2Cc2cccnc2)c1 (stereo not given)	8%	.	25%	5%[46.1 µM]	-1%	3%[46.1 µM]	.	8%
CN(C)CCC(=O)N1c2ccccc2Sc2ccc(Cl)cc21	0%	.	1%	?	-9%	0%	.	2%
COc1cccc(-c2c(C(=O)N/N=C/c3ccc(C)s3)nnn2-c2nonc2N)c1	6%	.	-5%	.	-1%	.	.	-13%
COc1cc(C=C2C(=O)OC(c3ccccc3)OC2=O)cc(Br)c1O (stereo not given)	.	.	1%	12%[46.1 µM]	10µM*	-23%[46.1 µM]	.	-28%
CCSC1=NC2(CCN(C(=O)NC3CCCCC3)CC2)N=C1c1ccc(Cl)cc1	.	3%	.	.	-15%	29%[46.1 µM]	-0.7%	.
(more compounds)
SMILES	NS1 function inh	Cruzain inh noDet	SARS PLpro yeast	MARV entry inh	2A StopGo	LASV entry inh	Cruzain inh Det	RE007 growth inh
CCCOc1ccc(-c2nn(-c3ccccc3)cc2C2NC(=O)NC(C)=C2C(=O)OC)cc1 (stereo not given)	.	4%	.	-14%[46.1 µM]	8%	10%[46.1 µM]	-13%	.
Cc1cccc(C=Nc2ccc3c(c2)oc2ccccc23)c1O	8%	1%	-16%	?	28%	12%	-5.9%	-25%
CCOc1ccccc1NC(=S)N(CCC(C)C)C1CCN(C(C)=O)CC1	.	.	3%	2%[46.1 µM]	-5%	29%[46.1 µM]	.	-11%
CCOC(=O)C1CCCN(c2nc3c(S(=O)(=O)c4ccc(C)c(C)c4)nnn3c3ccc(Cl)cc23)C1 (stereo not given)	.	-21%	.	2%[46.1 µM]	-10%	.	-12%	.
CC(C)COC(=O)C(C#N)c1nc2ccccc2nc1N1CCN(Cc2ccccc2)CC1 (stereo not given)	-1%	0%	0%	-2%	-24%	-2%	0.5%	2%
CCN(CC)C(=O)Nc1ccc(C(=O)OC)cc1	2%	-5%	-3%	1%[46.1 µM]	18%	30%	2.5%	-12%
COc1ccc(C2C(C#N)=C(N)Oc3cc4c(cc32)OCO4)cc1 (stereo not given)	-39%	0%	-3%	5.8µM*	.	?	-7.7%	10%
N#C/C=C/C(=C\Nc1ccc(Cl)cc1)S(=O)(=O)c1ccccc1	12%	.	-1%	-18%[46.1 µM]	-16%	-7%[46.1 µM]	.	15%
Cc1cc(NC(=O)Cn2nc(C(=O)O)c3ccccc3c2=O)ccc1Br	-9%	.	2%	?	-3%	?	.	-13%
Oc1ccc2ccccc2c1N=Nc1ccccc1F	2%	.	-2%	.	19%	.	.	-15%
CSc1ccccc1C(=O)N1CCN(c2cccc(Cl)c2)CC1	2%	.	-1%	?	-18%	5.6µM*	.	-10%
Cc1nccn1CCCNC(=O)C1CCC(=O)N(Cc2ccccc2F)C1 (stereo not given)	0%	.	-3%	.	-12%	.	.	4%
O=C(CCc1nnc(C2(c3ccc(Cl)cc3)CCC2)o1)NCCCn1cccn1	-3%	.	0%	3%[46.1 µM]	0%	8%[46.1 µM]	.	17%
Cc1ccc(NC(=O)c2nsc(Cl)c2Cl)cc1	-4%	.	1%	.	69%[activator]	.	.	10%
O=C(CN1C(=O)C2C3C=CC(C3)C2C1=O)OCC(=O)c1ccc(Cl)cc1 (stereo not given)	7%	.	-10%	-7%[46.1 µM]	2%	0%[46.1 µM]	.	-7%
Cn1c(/N=C/c2c[nH]c3ccccc23)nc2ccccc21	-81%	7%	-4%	-8%	37%[activator]	11%	-1.0%	6%
Cc1cc(Br)ccc1NC(=O)CN(C)C(=O)CSC(=S)N1CCCC1	.	.	1%	?	-8%	-9%	.	-19%
O=c1cc(N2CCN(c3ccccc3Cl)CC2)[nH]c(=O)n1Cc1ccc(F)cc1	11%	.	-2%	?	?	.	.	7%
CCc1cc(=O)oc2cc(OCC(=O)NCCCN3CCCC3=O)ccc12	-4%	.	6%	-5%[46.1 µM]	0%	-14%[46.1 µM]	.	-5%
O=C(NC1CCCCC1)N1CCN(CCc2ccccc2)CC1	-4%	-4%	1%	18%	13%	-30%[14.3 µM]	6.3%	20%
Cc1ccc(S(=O)(=O)Nc2cccc(-c3ccc4nnc(C)n4n3)c2)s1	.	.	-4%	?	5%	?	.	20%
N#CCCN1CCN(C(=S)c2ccc(-c3ccc(Cl)c(Cl)c3)o2)CC1	-47%	28%	-9%	14µM*	7%	20µM*	-22%	-22%
COc1ccccc1OC(=O)c1cc2ccccc2oc1=O	-26%	.	-7%	?	19%	?	.	-7%
COc1ccccc1OCC(=O)Nc1c2c(nn1-c1ccc(F)cc1)CS(=O)(=O)C2	7%	.	-2%	?	-20%	19%	.	-19%
CNC(=O)N1CCN(C(=O)NC)CC1	4%	-6%	0%	3%	.	18%	3.3%	22%
Additional results
SMILES	NS1 function inh	Cruzain inh noDet	SARS PLpro yeast	MARV entry inh	2A StopGo	LASV entry inh	Cruzain inh Det	RE007 growth inh
CC(=O)c1cccc(NCC(=O)Nc2cc(S(=O)(=O)N3CCCCC3)ccc2C)c1	9%	.	-1%	-16%	0%	-13%	.	0%
CCn1cc(C(=O)NCc2ccc3c(c2)OCO3)c(=O)c2ccc(C)nc21	2%	-3%	?	2%	.	.	1.5%	.
CCOC(=O)/C(C#N)=C/N=c1ccc(C)cn1C	-3%	.	0%	?	7%	5%[46.1 µM]	.	9%
CC1CCc2nc3ncn(Cc4ccc(Cl)cc4)c(=O)c3cc2C1 (stereo not given)	.	-2%	.	.	74%[activator]	18%[46.1 µM]	-0.3%	.
C=CCNC(=O)[C@H]1N2C(=O)c3ccccc3C2SC1(C)C (stereo not given in full)	3%	.	2%	1%[46.1 µM]	-4%	13%[46.1 µM]	.	-7%
COCCN1Cc2cccc(C(=O)Nc3ccc(C)cc3C)c2C1=O	.	1%	.	-8%[46.1 µM]	-21%	15%[46.1 µM]	-1.2%	.
COc1ccc(OC)c(-n2nnnc2SCC(=O)Nc2nc(C)c(C)s2)c1	-7%	-4%	-4%	2%	.	?	9.5%	1%
Cc1ccc2nc(N/C(=N/S(=O)(=O)c3ccc(F)cc3F)c3ccccc3)sc2c1	.	.	2%	?	-13%	-3%[46.1 µM]	.	-9%
O=C(Nc1cnn(Cc2ccc(Cl)cc2)c1)c1ccc([N+](=O)[O-])cc1	-4%	-6%	2%	11µM*	?	?	-8.9%	0%
COc1ccc(N2CCN(C(=O)c3ccc(-c4nc(COc5ccccc5)c(C)o4)cc3)CC2)cc1	.	3%	.	.	-21%	?	-1.0%	.
CCC(O)c1nc2ccccc2n1Cc1cc(C)ccc1C (stereo not given)	.	-11%	.	0%[46.1 µM]	-12%	?	-1.7%	.
COc1ccc(C(=O)N2CCN(c3nc4c(C)c(Cl)ccc4s3)CC2)c(OC)c1	.	?	.	.	?	-14%[46.1 µM]	-17%	.
Cc1ccc(-c2nnc3ccc(SCC(=O)N4CCc5ccccc54)nn23)cc1	7%	8%	6%	.	15%	.	4.0%	6%
CN(c1ccc(OCC(=O)OCc2nnc(-c3ccccc3)o2)cc1)S(=O)(=O)c1ccc(Cl)cc1	.	.	-6%	21%	2%	-10%	.	-25%

Screening data deposited in PubChem BioAssay by National Center for Advancing Translational Sciences (NCATS).
